Compound activity as filed in PubChem.
Mtb H37Rv: Mycobacterium tuberculosis H37Rv growth inhibition, cell based, confirmatory dose response (AID 1949); inhibition, % at 10 µg/mL; hits with a dose series show IC50 in µg/mL; actives 1.6% (n = 100,000); most inactive calls were filed without a number and no value below 0 was filed;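 active = confirmed in a dose series; inconclusive = about 50% or more but not retested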;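 note: bacteria grown 7 days with compound before Alamar blue readout; 0% = untreated bacteria and 100% = reference antibiotic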
Active calls of the source: *; i = inactive; ? = inconclusive.

Molecule	Mtb H37Rv
CC(C)(C)c1ccc(C(=O)Nc2cc(Cl)ccc2C(=O)O)cc1	4%
OCCN1CCN(c2nc3ccccc3nc2-c2ccccc2)CC1	i
CNC(=O)c1c(-c2ccccc2)c2cc(OC)ccc2n1CCN(C)C	2%
CC1CN(S(=O)(=O)c2ccc(Cl)c(C(F)(F)F)c2)CC(C)O1 (stereo not given)	i
CC(=O)Nc1ccc(NC(=O)C2CCN(C(=O)c3ccccc3Cl)CC2)cc1	i
O=C1CC(C(=O)Nc2cccc([N+](=O)[O-])c2)C(c2ccccc2)O1 (stereo not given)	i
COc1ccc(CC(=O)Nc2ccc(-c3nc4ccccc4s3)cc2)cc1OC	i
CCOc1ccccc1NC(=O)CSCc1c(F)cccc1Cl	i
Cc1ccc(S(=O)(=O)N(C)c2c(C)ccc(S(=O)(=O)n3nc(C)cc3C)c2C)cc1	i
COc1cccc(C(=O)Nc2ccc(N3CCN(Cc4ccccc4)CC3)cc2)c1	1%
COC(=O)COc1ccc2c(=O)c(Oc3ccccc3OC)c(C)oc2c1	1.4µg/mL*
C=CCN(CC=C)C(=O)Cc1ccc(Br)cc1	i
OCc1ccc(OCc2cccc(Cl)c2)cc1	i
O=C(O)CCSc1ncnc2ccccc12	i
O=C(n1cccn1)C12CC3CC(CC(C3)C1)C2	i
N#C/C(=C\c1ccc(-c2ccc(Cl)cc2Cl)o1)c1nn(-c2ccccc2)c(N)c1C#N	2%
CCC(=O)NC(=S)Nc1cc(C)c(C)cc1O	7%
COc1ccc(Cl)cc1NC(=O)NNS(=O)(=O)c1ccc2ccccc2c1	1%
COc1cc(C=O)cc(Cl)c1OC/C=C/c1ccccc1	i
Cc1ccc(C)c(-n2c(-c3cccnc3)n[nH]c2=S)c1	i
Cc1ccc(C(=O)Nc2ccc(NC(=O)c3ccco3)c(C)c2)c(Cl)c1	i
Cc1ccc(C)c(NC(=S)N2CCC(O)CC2)c1	1%
CCCOc1ccc(S(=O)(=O)NCc2ccc3c(c2)OCO3)cc1	8%
Cc1cccc(C(C)C)c1NC(=O)C(C)Oc1cccc(Cl)c1 (stereo not given)	32%
CCOc1ccc(NCc2ccccc2NS(=O)(=O)c2ccc(C)cc2)cc1	9%
O=C(Nc1ccc(S(=O)(=O)N2CCCCC2)cc1)c1sc2cc(Cl)ccc2c1Cl	i
CC(C)(C)c1ccc(C(=O)Nc2ccccc2-c2nc3ccccc3s2)cc1	i
CN(C)CCNC(=S)Nc1ccc(Br)cc1	i
O=C(Nc1cc(C(F)(F)F)ccc1OCC1CCCO1)c1ccccc1 (stereo not given)	i
O=C(Nc1ccc(Oc2ccc(Cl)cc2)cc1)c1cccnc1	2%
CCCOc1cccc(C(=O)Nc2c(C)cc(Br)cc2C)c1	i
O=[N+]([O-])c1ccc(NCCOc2ccccc2)c2ncccc12	6%
Cc1ccc(SCC(=O)NC(C)C)cc1	i
Cc1cccc(C)c1NC(=O)CN(c1ccc(F)cc1)S(=O)(=O)c1ccccc1	i
Cc1ccc(Nc2cc(-n3cccn3)nc(-c3ccccc3)n2)cc1	i
C=CCSc1nc2c(c(=O)[nH]1)C(c1cccc(OCc3ccccc3)c1)C1=C(CCCC1=O)N2 (stereo not given)	4%
COc1ccc(CCNS(=O)(=O)c2ccc3c(c2)oc(=O)n3C)cc1OC	i
CCOC(=O)c1c(NC(=O)c2ccoc2C)sc2c1CCC2	i
NC(=O)C1(N2CCCCC2)CCN(C(=S)Nc2ccc(F)cc2)CC1	1%
CC(O)c1nc2ccccc2n1CCCOc1ccccc1 (stereo not given)	6%
O=c1c(-c2nncn2-c2ccccc2)coc2c(O)c(O)ccc12	2%
Cc1ccc(Cn2c(=O)oc3ccccc32)cc1	2%
CCN(CC)C(=O)CC(c1ccccc1)c1ccco1 (stereo not given)	i
COc1ccc(NC(=O)CC(c2ccccc2)c2ccco2)cc1 (stereo not given)	i
CN(c1cccc(NC(=O)c2ccccc2N(C)S(C)(=O)=O)c1)S(C)(=O)=O	3%
CCN(CC(=O)Nc1ccccc1)S(=O)(=O)c1ccc(C)cc1	1%
COc1ccc(NC(=O)Nc2ccc(OC(F)F)c(Cl)c2)cc1OC	i
COC(=O)c1ccccc1NC(=O)C1=C(C)NC(=S)NC1c1cc(Cl)cc(OC)c1OC(C)C (stereo not given)	i
CCC(=O)NC(=S)Nc1cccc(Cl)c1N1CCOCC1	1%
CCC(C)c1ccc(NC(=O)CSCc2ccccc2)cc1 (stereo not given)	8%

Other structures
Molecule	Mtb H37Rv
CCOC(=O)C1=C(C)N(c2ccc(OCC)cc2)C(=O)C1	i
COc1ccc([N+](=O)[O-])cc1CSc1nc2sc3c(c2c(=O)n1-c1ccccc1)CCCC3	i
CC1CC(C)CN(CCCCOc2ccccc2)C1 (stereo not given)	i
c1cnc(SCCCOc2ccc3ccccc3c2)nc1	i
Nc1cc(N)nc(SCC(=O)Nc2ncccn2)n1	i
CCOC(=O)c1c(NC(=O)c2ccc(C(C)(C)C)cc2)sc(C(=O)OC)c1C	1%
Cc1cc(NC(=O)Nc2ccc(F)c(Cl)c2)no1	i
COc1ccccc1-n1nnnc1SCc1ccccc1	5%
COC(=O)Cc1ccc(NC(=S)Nc2ccc(Nc3ccc(OC)cc3)cc2)cc1	i
CC(=O)c1nc(Nc2nc3ccccc3s2)ncc1C	5%
O=C(Nc1sc2c(c1C(=O)N1CCOCC1)CCCC2)c1cccs1	i
Cc1c(NC(=S)Nc2ccccc2C(F)(F)F)cccc1[N+](=O)[O-]	i
CC(C(=O)N1CCCCC1)N1C(=O)C2C3C=CC(C4CC34)C2C1=O (stereo not given)	i
CC(=O)c1cccc(Nc2ncnc3ccc(I)cc23)c1	8%
CCn1c(=N)c(S(=O)(=O)c2ccccc2)cc2c(=O)n3ccccc3nc21	2%
COC(=O)Cc1c(C)c2ccc(OCC(=O)NCC3CCCCC3)cc2oc1=O	i
Cc1ccc(-c2ccc(OCC(=O)N3CCOCC3)cc2)cc1	i
Cc1ccc(C(=O)NC(=S)Nc2ccc(S(=O)(=O)N3CCCCC3)cc2)cc1I	2%
Cc1cc(=O)[nH]c(/N=C(\N)Nc2cccc([N+](=O)[O-])c2)n1	0%
O=C1NC2(CCCC2)NN1c1ccccc1	1%
CCCN(CCC)S(=O)(=O)c1ccc(NC(=O)COc2ccccc2)cc1	4%
Cc1cc(S(=O)(=O)N2CCCC2)ccc1OCC(=O)NCc1ccco1	i
COc1ccc(C)cc1NS(=O)(=O)c1cccc2ccccc12	i
COc1ccc2nc(/C(C#N)=C\c3ccc(Br)s3)[nH]c2c1	24%
O=C(NC1CCCCC1)N1CCN(c2ncccn2)CC1	i
Cc1ccc(NC(=O)CSc2nc3ncnc(N)c3[nH]2)cc1	3%
O=c1cc(O)n(-c2ccc(F)cc2)c(=S)[nH]1	i
O=C(Nc1ccc(NC(=O)C23CC4CC(CC(C4)C2)C3)cc1)C(c1ccccc1)c1ccccc1	45%
Cc1ccc(C(=O)NCCSC(C)(C)C)cc1	?
CCCNS(=O)(=O)c1ccc(CCC(=O)NC2CCCC2)cc1	i
Cc1noc(NS(=O)(=O)c2ccc(NC(=O)CSc3nnnn3-c3ccccc3)cc2)c1C	i
CC1CN(C(=O)Cc2ccc(Cl)cc2)CC(C)O1 (stereo not given)	i
O=C(Nc1ccccc1C(F)(F)F)c1ccc(Br)cc1	3%
CCCCN(C)C(=O)c1ccc(NC(=O)C2(c3ccc(OC)cc3)CCOCC2)cc1	i
Cc1ccc(-n2cnc3ccccc3c2=O)cc1Br	i
O=C(Nc1cc2nn(-c3ccccc3)nc2cc1Cl)c1ccc(Br)cc1	i
O=C(CN1C(=O)c2cccc3cccc1c23)NC1CCCCC1	2%
C=CCNC(=O)CSCc1ccc(Br)cc1	i
S=C(NCc1cccnc1)NC1CC1	i
COc1ccc(CCOSc2nc3ccccc3[nH]2)cc1	i
COc1ccc(C)cc1N(CC(=O)Nc1ccc2c(c1)OCCO2)S(C)(=O)=O	i
O=c1oc(-c2cccs2)nc2c1cnn2-c1ccccc1	?
COc1ccccc1-n1c(-c2ccc(Cl)cc2)n[nH]c1=S	i
O=C(CC12CC3CC(C1)CC(c1ccccc1)(C3)C2)N1CCCC1	10%
Cc1ccc2[nH]c(C)c(CN3CCCCC3)c(=O)c2c1	0%
Cc1ccc(NC(=O)c2nn(C)cc2[N+](=O)[O-])c2cccnc12	i
Cc1sc(NC(=O)c2cccs2)c(C(=O)NC2CCCCC2)c1C	i
O=C(CCN1CCCCC1)N/N=C/c1ccc(Br)cc1	i
COc1ccc(NC(=O)CN2CCC(C(N)=O)(N3CCCCC3)CC2)c(OC)c1	i
CS(=O)(=O)N(CCc1ccccc1)CC(=O)N1CCc2ccccc2C1	i

Continuation:
Molecule	Mtb H37Rv
CCCCCCCNC1CC(=O)N(c2ccc(C(=O)OC)cc2)C1=O (stereo not given)	i
O=C(/C=C/c1ccc(-c2cccc(C(F)(F)F)c2)o1)c1ccccc1	6%
COc1ccc(N2CCN(C(=O)C3CCN(S(=O)(=O)c4ccc(F)cc4)CC3)CC2)cc1	i
NS(=O)(=O)c1ccc(NC(=S)N2CCN(CCO)CC2)cc1	i
Cc1nc2ccccn2c1-c1csc(Nc2ccc(C(=O)O)cc2)n1	i
COc1ccc(-n2c(-c3ccc(Br)cc3)nc(=S)c3c2CCCC3)cc1	i
Cc1cc(C(F)F)n2ncc(C(=O)N3CCC(C(N)=O)CC3)c2n1	i
Clc1cccc(-c2nnc(-c3cccs3)o2)c1	i
COc1ccc(NC(=O)CN2CCN(c3c(C)cccc3C)CC2)cc1	i
COc1cc(C(=O)Nc2ccc(Cl)cc2C)c(Br)c(OC)c1OC	12%
CCOc1ccc(NC(=O)Nc2cccc(C)n2)cc1	0%
COCCNC(=O)C(C)(C)Oc1ccc(Cl)cc1	i
CCC(C)c1ccc(OCC(=O)Nc2ccc(I)cc2Cl)cc1 (stereo not given)	i
CSc1nc2c(c(=O)[nH]1)C(c1ccc(OCc3ccccc3)cc1)C1=C(CCCC1=O)N2 (stereo not given)	0%
CCS(=O)(=O)N1CCN(C(=O)C(c2ccccc2)c2ccccc2)CC1	i
CCN(CC)S(=O)(=O)c1ccc(NC(=O)COc2ccc3ccccc3c2)cc1	i
Cc1c(Cl)cccc1N(CC(=O)Nc1ccccc1C(=O)NC(C)c1ccccc1)S(C)(=O)=O (stereo not given)	2%
Cc1cc(Cl)c2oc(C(=O)O)c(C)c2c1	i
Cc1c(NC(=O)c2cccc(-c3cc4ccccc4oc3=O)c2)cccc1-c1nc2ccccc2s1	1%
O=S(=O)(/N=C(\N1CCCCC1)C(F)(F)F)c1ccccc1	i
CCc1ccc(OC(=O)c2ccccc2[N+](=O)[O-])c(Br)c1	i
CCC(Sc1nc(C)cc(C)n1)C(=O)Nc1sc2c(c1C#N)CCCC2 (stereo not given)	i
O=C(Oc1ccc(-c2ccccc2)nn1)c1cccs1	i
CCCCOC(=O)c1cccc(NC(=O)c2c(-c3ccccc3Cl)noc2C)c1	i
CCc1ccccc1NC(=O)CN1C(=O)C2C3C=CC(C3)C2C1=O (stereo not given)	i
Cc1cccc2sc(NC(=O)CSc3ccccn3)nc12	i
C=CCN(CC=C)C(=S)NCCOC	i
CC(C)(C)c1ccc(S(=O)(=O)N2CCc3ccccc3C2)cc1	1%
O=C(Cc1ccc([N+](=O)[O-])cc1)Nc1ccc(Cl)cc1F	i
O=C(CSCc1ccc(Br)cc1)NC1CCCCC1	i
Cc1ccc(S(=O)(=O)NC(=O)COc2cccc(C(=O)Nc3ccccc3)c2)cc1	i
Cn1nnc2cc(NC(=O)Nc3cccnc3)ccc21	i
Clc1ccccc1OCCCCOc1ccccc1Cl	4%
Cc1ccc(S(=O)(=O)Nc2ccc(C)cc2NS(=O)(=O)c2ccc(C)cc2)cc1	4%
CC(=O)c1cc(C#N)c(SCCC(C)C)nc1C	0%
O=C(CN1C(=O)c2ccccc2S1(=O)=O)NCC1CCCO1 (stereo not given)	i
Clc1ccc(-c2nnc(SCc3ccon3)o2)c(Cl)c1	0.79µg/mL*
Cc1ccc(-c2cc(C(=O)N3CCN(Cc4ccc5c(c4)OCO5)CC3)c3ccccc3n2)s1	i
Cc1ccc(OCC(=O)Nc2cc(C)c(I)cc2C)c(C)c1	i
CCC(=O)Nc1ccc2c(c1)oc1ccccc12	9%
CC(C)(C)c1ccc(OCC(=O)Nc2ncccn2)c(Br)c1	20%
COc1cc(Cl)c(C)cc1NC(=O)C(Cc1ccccc1)N1C(=O)c2ccccc2C1=O (stereo not given)	i

Some of the entries above in a different format:
O=c1c(-c2nncn2-c2ccccc2)coc2c(O)c(O)ccc12
  Mtb H37Rv = 2%

Cc1ccc(Cn2c(=O)oc3ccccc32)cc1
  Mtb H37Rv = 2%

CCN(CC)C(=O)CC(c1ccccc1)c1ccco1 (stereo not given)
  Mtb H37Rv = i

COc1ccc(NC(=O)CC(c2ccccc2)c2ccco2)cc1 (stereo not given)
  Mtb H37Rv = i

A portion of the library. The share of hits here may be higher or lower than overall.
